# Sfp inh: Sfp phosphopantetheinyl transferase inhibition. Q9F4F7. Biochemical Sfp PPTase activity, qHTS. Potency, µM, without a hit: max response, negative = inhibition, most hits filed as inhibitors. 3.5% of 310,000 active; active = well fitted inhibition curve with a large enough effect; inconclusive = small, poorly fitted or top-dose-only effect, or another doubt; inactive = no such curve, though single readings can be large or run the other way;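 note: the enzyme is Sfp with the accession as filed and its product quenches rhodamine fluorescence; potency is the fitted concentration of half-maximal effect; 0% = enzyme reaction without inhibitor and -100% = no enzyme wells; top concentration of the series not given in the record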
#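 Fluorescence-quenching assay with 15 nM Sfp, 5 uM rhodamine-CoA and 12.5 uM BHQ-2-labelled ybbR peptide in pH 7.6 Hepes/MgCl2 buffer. Enzyme was pre-incubated with compound for 15 min at room temperature. Rate was taken from the 30-min fluorescence change (525/598 nm).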
# Menin MLL FP FL: displaces fluorescein MLL peptide from human menin | 290,000 tested, under 10 active | FP activity change, % at 61.4 µM | Fluorescence polarization, fluorescein-MLL peptide displacement from menin; inconclusive = falling polarisation curve, or a change in total fluorescence; inactive = total fluorescence flat and polarisation flat or rising; no compound was filed as active; the % refers to the polarisation; negative = inhibition;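 note: % of control where 0% means no effect; inhibitors lower the polarisation; unlabelled MLL peptide was the positive control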
# ClpP mod: qHTS Assay for Activators of ClpP; Potency, µM (series often up to 57.5 µM), for the others: at the highest dose activity change, negative = active; purified B. subtilis ClpP, FRET peptide cleavage, 20 min; 1.9% of 340,000 active; ATP-dependent Clp protease proteolytic subunit (Bacillus subtilis (strain 168)), P80244; active = well fitted falling curve with a large enough effect; inconclusive = small, poorly fitted or top-dose-only effect; inactive = no such curve, though single readings can be large or run the other way; note: potency is the fitted concentration of half-maximal effect; the source files actives as falling curves though it sought activators and does not explain the sign; nearly all actives have a fitted effect of over 65% in size; many hits overshoot -100%
# Target sequence (P80244 whole entry, looked up): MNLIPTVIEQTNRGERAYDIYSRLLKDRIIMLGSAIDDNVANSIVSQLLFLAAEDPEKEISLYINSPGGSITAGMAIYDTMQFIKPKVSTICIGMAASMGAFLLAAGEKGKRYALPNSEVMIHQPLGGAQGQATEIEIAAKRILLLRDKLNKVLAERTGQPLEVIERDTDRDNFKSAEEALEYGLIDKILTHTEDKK
#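 FRET quenching reversal measured ClpP activation: 10 microg/mL B. subtilis ClpP at pH 8 with the FRET-FV decapeptide, read at 430 nm after 320 nm excitation. The 20-min minus 0-min signal was scaled between DMSO/no-enzyme wells and ADEP (5.8 microM final).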
# TRPV1 potentiator: potentiators of human vanilloid receptor 1 (TRPV1) | Q8NER1 | TRPV1-expressing cells, Fluo-8 calcium influx, capsaicin EC20 potentiation; host cell line not named in the record; control for the full effect not named in the record | potentiation, % at 8.33 µM | 0.02% of 320,000 active | AID 540277; active means potentiation above 80%; inconclusive means 30% to 80%; inactive means below 30%; note: 0% is about no effect
#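 Fluo-8 calcium influx in TRPV1-expressing cells, kinetic read (ex 480/em 520 nm). Compound added and read 3 min for agonist activity, followed by capsaicin at EC20 final and 2 min further read for enhancement.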
# TRPML1 blocker: human mucolipin-1 channel inhibition | Q9GZU1 | TRPML1-inducible cells, Ca2+ dye fluorescence, FDSS; active compounds read low; inhibition of EC80 agonist-evoked calcium signal | activity change, negative = inhibition, % (concentration not given with the values) | 0.02% of 390,000 active; in the data active means activity change below about -50%; inconclusive means about -30% to -50%; inactive means above about -30%;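 note: stimulus is agonist 54-4 at its EC80 concentration; % is set by controls: 0 for no effect and ±100 for the full control effect; the text of the record puts the active cut at -80%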
# Target sequence (Q9GZU1 whole entry, looked up): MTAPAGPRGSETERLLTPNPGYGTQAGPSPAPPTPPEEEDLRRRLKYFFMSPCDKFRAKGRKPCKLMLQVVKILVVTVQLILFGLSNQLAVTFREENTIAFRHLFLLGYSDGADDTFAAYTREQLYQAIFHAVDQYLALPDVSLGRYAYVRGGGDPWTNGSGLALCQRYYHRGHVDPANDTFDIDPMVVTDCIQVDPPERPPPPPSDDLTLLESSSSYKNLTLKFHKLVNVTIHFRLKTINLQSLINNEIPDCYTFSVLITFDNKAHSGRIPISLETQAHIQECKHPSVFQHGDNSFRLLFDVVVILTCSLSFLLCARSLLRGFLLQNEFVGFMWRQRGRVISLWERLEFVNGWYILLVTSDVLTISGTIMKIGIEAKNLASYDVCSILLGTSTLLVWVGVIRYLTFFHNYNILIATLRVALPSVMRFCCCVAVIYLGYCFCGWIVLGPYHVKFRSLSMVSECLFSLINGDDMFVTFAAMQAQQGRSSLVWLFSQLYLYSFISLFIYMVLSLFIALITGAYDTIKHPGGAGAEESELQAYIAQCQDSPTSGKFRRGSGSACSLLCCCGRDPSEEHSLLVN
#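 Calcium fluorescence in TRPML1-DL cells induced overnight with Tet: a 110 s read after compound pin addition, then a 110 s antagonist read after challenge with 54-4 at 4 uM final (EC80).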
# gsp antagonist: antagonizes gsp, the McCune-Albright syndrome mutation | gsp-mutant cells, cAMP HTRF, 30 min; control for the full effect not named in the record | 0.4% of 340,000 active | AID 624288 | Potency, µM (highest dose often 76.9 µM), inactives show at the top dose activity change, negative = inhibition, usual class: inhibitors; active = falling curve of any shape with a large fitted effect; inconclusive = falling curve, mostly with a smaller effect; inactive = flat or rising curve; cell line not stated here;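 note: intracellular cAMP measured with PDE inhibitor Ro 20-1724 present during compound exposure; potency is the fitted concentration of half-maximal effect; % is set by controls: 0 for no effect and ±100 for the full control effect; nearly all actives have a fitted effect of over 65% in size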
#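 Cells in G418 medium, seeded 16-24 h, 37C; buffer exchange to DPBS + 1 mM CaCl2, 0.5 mM MgCl2, 0.05% BSA; cpds in DMSO + […] (300 uM stock), 30 min 37C; HTRF cAMP detection.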
# gsp agonist: gsp mutant agonism. gsp mutant cells, cAMP HTRF, 30 min; control for the full effect not named in the record. Potency, µM (highest dose often 76.9 µM), inactives show at the top dose activation (cAMP increase), usual class: activators. 0.13% of 340,000 active. AID 624287; active = well fitted activation curve with a large enough effect; inconclusive = small, poorly fitted or top-dose-only effect, or another doubt; inactive = no such curve, though single readings can be large or run the other way; cell line not stated here;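 note: phosphodiesterase inhibitor Ro 20-1724 added with compounds to block cAMP breakdown; potency is the fitted concentration of half-maximal effect; nearly all actives have a fitted effect of over 60% in size; about a fifth of the inactives were tested at one dose only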
#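 Cells stably selected in G418 were plated at 2000/well, grown 16-24 hr, then given compounds in DMSO with the PDE inhibitor […] (300 uM solution added) for 30 min at 37C; cAMP was read by HTRF.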
# * hit, by the source's call; ? = inconclusive; / = not tested or not shown; & = joins results of further samples; [ ] = remark or other dose.
SMILES	Sfp inh	Menin MLL FP FL	ClpP mod	TRPV1 potentiator	TRPML1 blocker	gsp antagonist	gsp agonist
COc1ccc([C@@H]2CC=C(C(=O)O)[C@H](c3ccccc3F)N2S(=O)(=O)c2ccc(C)cc2)cc1OC	/	/	-1.5%	-1.6	-0.7	-2.7%	11.7%
O=C(C1=C[C@@H](C2CC2)C[C@@H](OCCCCO)O1)N1CCN(Cc2ccc3c(c2)OCO3)CC1	-5.5%	3.7	1.1%	-1.9	1.0	-1.5%	/
CCNC(=S)N1CCN(Cc2ccc3c(c2)OCO3)CC1	11.1%	-2.6	-1.2%	20.3	15.1	8.6%	?
CCCCCCCCc1nc(SC(C)C(=O)O)n[nH]1 (stereo not given)	8.9%	-1.1	-0.2%	20.1	-8.6	8.1%	24.1%
COc1ccc(-c2nnn(CC(=O)N(Cc3cccs3)C(C)C(=O)NC3CCCC3)n2)cc1OC (stereo not given)	4.5%	2.7	-1.7%	1.1	-7.0	-6.9%	-9.7%
O=C(NC1CCN(C(=O)N2c3ccccc3Sc3ccccc32)CC1)c1ccccc1Cl	13.3%	0.9	-2.6%	2.0	50.0	-20.5%	-1.2%
O=C(CSc1nnc(-c2ccc(Cl)cc2)n1Cc1ccco1)Nc1ccc2c(c1)OCCO2	31.6µM*	10.9	1.1%	8.5	-11.8	-15.0%	1.7%
COC(=O)c1sccc1NS(=O)(=O)c1ccccc1	13.0%	1.2	-1.1%	-3.2	21.6	1.0%	-50.2%[inhibitor]
COC(=O)c1sccc1Oc1c(Cl)cccc1[N+](=O)[O-]	18.5%	-0.3	/	-16.7	-14.4	4.6%	-3.4%[15.4 µM]
CCOc1ccc2nc(NC(=O)CC3Oc4ccccc4NC3=O)sc2c1 (stereo not given)	-20.3%	6.1	1.9%	11.4	-9.0	-1.2%	-3.4%
O=C1NC2(CCCCC2)C(=O)N1c1ccc(Cl)cc1	10.9%	0.3	/	-10.3	-15.9	-4.2%	9.0%
Cc1ccc(S(=O)(=O)N/N=C2/CCCCC2C2CCCCC2)cc1[N+](=O)[O-] (stereo not given)	-7.2%	0.1	-2.6%	-10.8	-13.2	10.7%	16.8%
NC(=O)NC(CC(=O)NCCCc1ccccc1)c1ccc(Cl)cc1 (stereo not given)	22.5%	-0.1	-1.2%	3.6	18.5	8.0%	16.4%
COc1ccccc1NC(=O)Nc1ccc(C)cn1	16.6%	-0.8	0.4%	-1.6	/	1.6%	-18.9%
CC1CC(C)CN(CCCNC(=O)c2ccc3c(c2)N(Cc2ccccc2)C(=O)c2ccccc2S3=O)C1 (stereo not given)	-1.0%	-10.7	-2.3%	8.5	19.8	-0.5%	-4.7%
CCOC(=O)C1=NNC(C(=O)c2ccc(Cl)cc2)C1c1ccc(OC)cc1 (stereo not given)	3.1%	3.6	/	4.2	8.6	-7.8%	-5.0%[15.4 µM]
COc1ccc(/C=N/n2c(-c3cc(C)[nH]n3)n[nH]c2=S)cc1OC	56.2µM*	2.6	5.2%	-10.6	15.1	-11.0%	-3.0%
CC1CCN(S(=O)(=O)c2cc(Br)cc(C(=O)NC3=NCCS3)c2)CC1	5.6%	-2.9	-0.5%	-21.0	32.7	?	4.9%
COc1ccc(C(=O)NC2CC2)cc1OC1CCN(Cc2ccc(SC)cc2)CC1	17.5%	0.1	0.8%	-3.3	6.2	5.4%	35.2%
CNC(=O)c1ccccc1S(=O)(=O)c1ccccc1C#N	-13.8%	2.8	-1.3%	20.1	23.1	3.3%	0.0%

# Additional structures follow.
SMILES	Sfp inh	Menin MLL FP FL	ClpP mod	TRPV1 potentiator	TRPML1 blocker	gsp antagonist	gsp agonist
CCC(C)C(NC(=O)C(CC(C)C)NC(=O)C(CO)NC(=O)C1CCC(=O)N1)C(=O)OC (stereo not given)	11.2%	-4.4	-2.3%	-0.3	-21.7	16.7%	16.6%
Cn1cc([C@@H]2C[C@H]3CN(Cc4cccc(Cl)c4)C(=O)[C@]34CCCN24)c2ccccc21	-9.2%	?	-2.9%	7.2	-8.4	-22.8%	2.5%
COc1ccc(F)cc1S(=O)(=O)N1CCc2ccccc2C1	/	/	0.9%	/	-2.1	/	-18.7%
CCOC(=O)C1CCCN(C(=O)CCCn2nnnc2CN2CCC(C)CC2)C1 (stereo not given)	5.9%	-8.1	-2.9%	22.5	-1.5	0.5%	13.5%
Cc1cccc(N2CCN(Cc3nc(-c4cccc(Oc5ccccc5)c4)oc3C)CC2)n1	3.4%	-1.0	?	3.6	27.1	2.6%	8.8%
CC1(C)C=Cc2cc3ccc(=O)oc3cc2O1	15.7%&-3.7%	1.5&-0.3	3.7%	-10.0	-1.1	-4.0%	-48.3%[inhibitor]
O=C(NNc1cc(Cl)cc(Cl)c1)C1CCC1	26.5%	0.7	/	/	3.7	-5.6%	6.7%[15.4 µM]
Cc1ccc(S(=O)(=O)N(C)C)cc1NC(=O)CCc1ccccc1	4.2%	1.8	0.0%	-1.1	-22.4	-6.4%	-27.1%
COc1ccc(CN(C)CC(=O)Nc2ccccc2C(=O)NC2CC2)cc1	/	/	-0.1%	27.6	-6.6	26.6%	4.3%
C=CCn1c(SCCN2C(=O)c3ccccc3C2=O)nc2scc(-c3ccccc3)c2c1=O	-12.2%	1.1	-4.1%	3.3	-6.2	?	-41.4%[inhibitor]
O=C(N/N=C/c1ccc2ncccc2c1)c1cc(-c2cccs2)nc2ccccc12	?	-0.5	3.0%	4.2	17.7	-9.2%	-3.7%
CC1CCN(CCOCCOc2ccc(Cl)cc2Br)CC1	56.2µM*	0.9	-0.6%	4.4	-11.6	-1.2%	-0.9%
Cc1ccc(NC(=S)NC2CCCC2)cc1C	-1.2%	-0.8	2.8%	-18.8	16.7	-4.9%	6.7%
COc1ccccc1NS(=O)(=O)c1cccc(C(=O)OCC(=O)Nc2cc(C)on2)c1	23.9%	0.5	-0.7%	5.4	42.7	-8.6%	20.8%
CN1CCCN(S(=O)(=O)c2ccccc2)c2nc3ccccc3nc21	/	/	-27.9%	-5.6	26.2	3.0%	-10.8%
COc1ccc(CN=C(Nc2ccccc2)SC2CC(=O)NC2=O)cc1 (stereo not given)	?	2.7	/	7.3	19.0	-1.8%	7.9%[15.4 µM]
COC(=O)C1=C(C)N(Cc2ccccc2)C(=NCc2ccc(OC)cc2)N[C@H]1c1ccccc1	-15.5%	11.1	-5.0%	-4.5	12.2	9.3%	/
CCOC(=O)c1csc(NC(=O)C2=COCCO2)n1	2.8%	/	0.6%	4.8	-6.4	5.5%	-1.5%
O=C(Nc1ccccc1Cl)c1cc[n+]([O-])cc1	-5.0%	-4.4	/	3.6	-16.3	-3.7%	9.4%
Cc1cccc(NC(=O)C2CCN(S(=O)(=O)c3cccc4nonc34)CC2)c1	17.1%	8.8	/	-7.6	-11.4	3.6%	4.6%

# Next part:
SMILES	Sfp inh	Menin MLL FP FL	ClpP mod	TRPV1 potentiator	TRPML1 blocker	gsp antagonist	gsp agonist
CCC(CC)C(=O)N1CCN(c2cccc(C)c2C)CC1	-9.5%	0.5	-2.5%	4.6	8.6	-4.5%	-2.3%
CCC(c1nnnn1CCc1ccccc1)N(Cc1ccco1)Cc1cc2c(C)ccc(C)c2[nH]c1=O (stereo not given)	-13.8%	6.5	-24.7%	-6.7	9.1	-10.9%	-16.0%
Cc1ccc(NC(=S)NCC23C=CC(O2)C2C(=O)N(c4ccc(C)cc4)C(=O)C23)cc1 (stereo not given)	35.5µM*	4.3	1.5%	0.8	-14.7	-19.5%	-31.0%[inhibitor]
Cc1cc(C)cc(NC(=O)C(Nc2ccccc2)c2ccccc2)c1 (stereo not given)	11.7%	11.0	-0.5%	-0.4	-2.7	-22.3%	?
CCOC(=O)c1c(NC(=O)C(C)Sc2c[nH]c3ccccc23)sc2c1CCC2 (stereo not given)	20.7%	5.0	-8.5%	-7.8	11.5	-8.8%	-22.8%
O=C(O)C1C2C=CC(C2)C1C(=O)NCCCc1ccccc1 (stereo not given)	35.7%[activator]	2.7	-0.9%	11.6	-10.5	6.6%	?
COc1ccc(/C=N/NC(=O)C(=O)N2CCN(c3ccccc3OC)CC2)cc1	19.1%	1.8	-0.3%	1.3	7.5	2.4%	-0.1%
O=S(=O)(c1ccc2ccccc2c1)N1CCCCC1	4.8%	-3.1	1.0%	-11.7	-14.3	-7.5%	-3.9%
CS(=O)(=O)N1N=C(c2ccccc2)CC1c1ccc2nccnc2c1 (stereo not given)	12.2%	/	0.8%	-3.2	1.6	-21.3%	0.8%
Cc1ccc(C(=O)COC(=O)c2cc(C)no2)c(C)c1	/	/	/	2.6	0.0	2.2%	16.0%[15.4 µM]
CCN1CCN(C(=O)c2cc3cc(F)ccc3[nH]2)CC1	1.2%	1.3	-0.7%	0.0	64.0	11.2%	-9.3%[15.4 µM]
O=C(C1=C[C@@H](c2ccccc2)C[C@@H](OCCCCO)O1)N1CCOCC1	-18.0%	4.5	0.0%	1.3	12.8	0.9%	23.0%
Clc1cccc(Cl)c1OCCOCCNCc1ccccc1	-17.9%	-3.3	-0.5%	3.3	-6.8	15.5%	?
COc1ccccc1N1CCN(S(=O)(=O)c2ccc(-n3cnnn3)cc2)CC1	16.5%	/	4.0%&0.8%	-29.1	5.1&-16.4	1.6%	6.2%
CCCCNC(=O)C1(c2ccc(OC)cc2)CCOCC1	1.7%	0.4	-1.0%	8.7	-7.1	12.9%	-4.2%
CCCCN(CCCC)CCNC(=O)CN1C(=O)CSc2ccc(S(=O)(=O)N3CCOCC3)cc21	14.3%	3.6	0.7%&-0.1%	-3.4	17.9&-23.5	24.4%	-26.5%
Cc1ccc(C(=O)OC(C(=O)Nc2ccc(Cl)cc2C(F)(F)F)c2ccccc2)cc1 (stereo not given)	-48.2%	8.2	0.8%	10.0	31.2	17.7%	-13.1%
O/N=C\c1ccc(-c2ccccc2)o1	-4.6%	2.0	-7.3%	6.8	22.0	7.0%	-1.7%

# Assay outcomes as filed in PubChem.
